Tgondii IFNg = T. gondii growth inhibition with IFN-gamma, primary screen, cell-based. activity change, negative = inhibition, %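 (about 20 µM by stock and volumes)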. hit rate 3.8% among 69,000. AID 1259416, 2018. Toxoplasma gondii growth in IFN-gamma-treated host cells; stronger effect = lower value; reference of the scale not given here;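 active = below -70%; inconclusive = fit judged invalid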;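 note: host cells are HeLa cells infected with Toxoplasma gondii; parasite growth read as luciferase light; one replicate is shown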
The depositor's hits bear a star; i = inactive; ? = inconclusive; & = joins results of further samples. These rows are one share of the data; count on the stated rates, not on these rows.

SMILES	Tgondii IFNg
N#C[C@H]1[C@@H](c2ccccc2C2=CCCC2)[C@H](CO)N1C(=O)C1CCOCC1	-43
COc1c(C)cnc(Cn2cnc3c(Cl)nc(N)nc32)c1C	-44
CCS(=O)(=O)NCC[C@@H]1CC[C@H](NS(=O)(=O)c2ccccc2C)[C@H](CO)O1	40
O=C(NCCO)c1cc(-c2cnc(N3CCOCC3)nc2)cn1CC1CC1	-35
Cc1c(C(=O)N2CCC(C)CC2)oc2ccc3c(c12)C(O)CC1(CCCC1)O3 (stereo not drawn)	?
CCC(=O)N1CC[C@H](OCc2ccncc2)[C@@H](Cc2ccccc2)C1	-6
COc1ccc(-c2nc(N3CCOCC3)c3ccccc3n2)cc1	-42
COc1ccc(C(=O)N2CCN(c3ncnc4cc(C(C)(C)C)sc34)CC2)cc1OC	-85*
CC(C)(C)C(=O)NCCc1csc(-c2cccc(F)c2)n1	128
COc1ccccc1-c1ccc([C@H]2[C@@H](CO)N(C(=O)NC3CCCCC3)[C@H]2C#N)cc1	39
CS(=O)(=O)N1CC[C@@H]2OCC[C@@H](C(=O)NCc3cccnc3)[C@@H]2C1	-4
COc1ccc(CNC(=O)N(C)C[C@@H]2OCc3ccccc3-c3c(n(C)c4ccccc34)C(=O)N([C@@H](C)CO)C[C@H]2C)cc1	57
O=C(c1ccc(Cl)cc1)N1CCN(S(=O)(=O)c2cc3c4c(c2)CCN4C(=O)CC3)CC1	-29
NS(=O)(=O)c1ccc(NC(=O)C2CC=CCC2C(=O)N2CCOCC2)cc1 (stereo not drawn)	115
CC[C@H](Cn1nnn(-c2ccccc2)c1=O)NC(=O)c1n[nH]c(=O)c2ccccc12	8
Nc1nc2c(c(=O)[nH]1)CCN(C(=O)CSC13CC4CC(CC(C4)C1)C3)C2	1
COc1ccc(C2CCCN2)cc1OC (stereo not drawn)	4
C[C@@H]1CN([C@@H](C)CO)C(=O)Cc2cc(NS(=O)(=O)c3cccs3)ccc2O[C@H]1CN(C)CC1CCCCC1	-16
C/C=C/c1cnc2c(c1)C(=O)N([C@@H](C)CO)C[C@@H](C)[C@H](CN(C)C(=O)Nc1cccc(OC)c1)O2	i
Cc1ccn2cc(-c3cc4c(ccc5ccccc54)oc3=O)nc2c1	29
COC(=O)c1sccc1NS(=O)(=O)c1ccc(Cl)cc1	40
CCC(=O)N1C[C@@H](C)[C@H](OC)CN(C)C(=O)c2cc(NC(=O)Nc3ccc(Cl)cc3)ccc2OC[C@@H]1C	122
C[C@H](CO)N1C[C@H](C)[C@H](CN(C)Cc2ccc(-c3ccccc3)cc2)Oc2c(NS(C)(=O)=O)cccc2C1=O	-34
CN1CCN(C(=O)c2ccccc2NC(=O)c2sc3ccccc3c2Cl)CC1	11
COc1ccc(-n2cccn2)c(CN2CCOCC(CN(C)C)C2)c1 (stereo not drawn)	1
COc1cccc(-c2noc(-c3c(O)c4cc(F)ccc4n(C)c3=O)n2)c1	81
O=C(N[C@H]1CC[C@H](CCNS(=O)(=O)c2ccc(F)cc2)O[C@@H]1CO)C1CCC1	-33
COc1ccc(CN2CC3(CN(C(=O)Cc4ccccc4)C3)c3c([nH]c4cc(OC)ccc34)[C@@H]2CO)cc1	-65
O=C(c1n[nH]c2c1CCC2)N1CCCC(c2n[nH]c(=O)n2-c2ccccc2)C1 (stereo not drawn)	1
CCc1ccc(-c2nccn2Cc2c(C)nn(CC)c2C)nc1	0
Cc1nc(NCCCc2c(C)n[nH]c2C)c2cnn(C)c2n1	17
COCCn1nnnc1C(C(C)C)N1CCC(Cc2ccccc2)CC1 (stereo not drawn)	-2
CN(CCN1CCCCC1=O)C(=O)c1ccccc1C1CCNC1 (stereo not drawn)	12
Cc1nc(-c2cccc(F)c2)sc1CCNC(=O)C(=O)Nc1cc(F)ccc1F	54
OC12CCCCC1C(c1ccc3c(c1)OCO3)N(Cc1cccc(F)c1)CC2 (stereo not drawn)	1
Cn1cc(CN2CCc3ncnc(NC4CC4)c3CC2)cn1	-26
CNC(=O)C1(Cc2ccccc2-c2cncnc2)CCCN(CC(C)c2ccccc2)C1 (stereo not drawn)	-26
CCOCC1CCC2(CCN(C(=O)CCc3ccccc3)CC2)N1C (stereo not drawn)	-11
O=C(c1ccsc1)N1CC[C@@H](c2ccc3ccccc3c2)[C@H](O)C1	0
CS(=O)(=O)N1CCCCC1CCc1ccccc1 (stereo not drawn)	-10
CS(=O)(=O)c1ccc(-c2ccc(Cn3ccnc3)cc2)cc1	-2
CSc1cccc(NC(=O)Cn2c(=O)cc(-c3nc(C(C)C)no3)c3ccccc32)c1	25
COc1ccc(-c2nnc(SCC(=O)N3CCN(C(=O)c4ccco4)CC3)o2)cc1	-35
CCS(=O)(=O)c1ccccc1C(=O)O	53
Cc1nc2c(c(=O)[nH]1)CCN(C(=O)c1sc(-c3ccccc3F)nc1C)CC2	-50
CCc1nccc(CN2CCN(C)C3(CCN(C(=O)C(C)(C)C)CC3)C2)n1	10
O=C(c1cncc(N2CC(c3ccncc3)C2)n1)N1CCCC1	?
Cc1cc(C)c(NC(=O)C(=O)NCCc2sc(-c3cccc(F)c3)nc2C)c(C)c1	27
O=C(Nc1c(C(=O)N2CCCC2)[nH]c2ccccc12)c1ccc(Cl)cc1	2
Cn1cc(CN2CCC3(CCCN3CC3CC3)CC2)cn1	2
O=C(CCCn1ccnc1)N1CCOC(c2ccc(Cl)c(Cl)c2)C1 (stereo not drawn)	-29
O=C(C1CC2(CO1)CN(Cc1ccccc1)c1ccccc12)N1CCCC1 (stereo not drawn)	-31
C=CCNC(=O)c1ccc(-c2cccc(C(C)=O)c2)o1	6
O=C(O)c1cnn2c1[nH]c(=O)c1ccccc12	40
CN1CCN(S(=O)(=O)c2ccc(-c3cnc(N)c(C(=O)Nc4cccnc4)n3)cc2)CC1	-71*
CC(C)(C)[S@](=O)N1Cc2cc(C(=O)NCc3ccccn3)nc(-c3cccc(-c4ccccc4F)c3)c2[C@@H]1CCO	-58
CC(C)COC(=O)N(C)C[C@H]1OCc2ccccc2-c2ccccc2C(=O)N([C@@H](C)CO)C[C@H]1C	-37
CCc1ccc2oc(=O)cc(CN3CCC(C)CC3)c2c1	16
COc1cccc(-c2nc(Cn3nnc(C(=O)Nc4cc(Cl)ccc4C)c3C)c(C)o2)c1OC	173
CCOc1ccccc1CNC(=O)CN1C(=O)CCc2cc(S(=O)(=O)N3CCCCC3)ccc21	-5
The list goes on.
SMILES	Tgondii IFNg
CCCc1cc(C2CCCN2C(=O)c2cc(C(F)(F)F)nn2C)no1 (stereo not drawn)	0
COc1cccc(CN2[C@H](CO)[C@@H](c3ccccc3)C23CN(C(=O)C2CCCCC2)C3)c1	-41
CC(C)COc1ccc(-c2noc(-c3c(O)c4cccc(Cl)c4[nH]c3=O)n2)cc1	7
Cn1c(=O)c(-c2nc(-c3ccccc3)no2)c(O)c2cc(F)ccc21	24
Cc1cccc2cc(CO)c(-c3ccc(C(C)N4CCOCC4)cc3)nc12 (stereo not drawn)	-22
COc1cc(C)ccc1S(=O)(=O)N1CCC2(CCN(C)C2)CC1	-15
Cc1ccc(NC2(C(=O)NC3C=CS(=O)(=O)C3)CCCCC2)cc1 (stereo not drawn)	191
Fc1ccc(NC(=S)Nc2ccccc2Cl)cc1	35
CCCCCCNC1=NCCCS1	6
Cn1c(SCCS(=O)(=O)c2ccc(OC(F)(F)F)cc2)nnc1C(F)(F)F	147
COc1ccc(C(=O)Nc2ccc(-c3nc(-c4cc(C)ccc4C)co3)cc2)cc1OC	7
Cc1ccccc1-c1nc(CN2CCN(C(=O)NC3CCCCC3)CC2)c(C)o1	1
CC1(C)CC[C@]2(C(=O)O)CC[C@]3(C)C(=CCC4[C@@]5(C)CC[C@H](O)[C@@](C)(CO)C5CC[C@]43C)C2C1 (stereo partly drawn)	7
Cc1cc(N2CCCC2=O)cc(C)c1S(=O)(=O)Nc1c(C)nn(C)c1C	2
Cc1cc2c(cc1NC(=O)COc1ncnc3ccccc13)OCCO2	16
CCOCC(=O)Nc1nc2ccccc2s1	92
CCCNC(=O)Nc1ccc2c(c1)C(=O)N(C)C[C@H](OC)[C@@H](C)CN(C)[C@H](C)CO2	-28
c1ccc(-n2ccnc2)c(Cn2ccnc2-c2ccc3c(c2)OCO3)c1	-7
O=C(N[C@H]1CCCCNC1=O)c1ccc(N2CCC(NCCc3ccccn3)CC2)cc1	0
CN1CC2(CCN(Cc3nccn3C)CC2)OCC1=O	-6

Given bar-delimited: part of the list above
structure | Tgondii IFNg
CCCc1cc(C2CCCN2C(=O)c2cc(C(F)(F)F)nn2C)no1 (stereo not drawn) | 0
COc1cccc(CN2[C@H](CO)[C@@H](c3ccccc3)C23CN(C(=O)C2CCCCC2)C3)c1 | -41
CC(C)COc1ccc(-c2noc(-c3c(O)c4cccc(Cl)c4[nH]c3=O)n2)cc1 | 7
Cn1c(=O)c(-c2nc(-c3ccccc3)no2)c(O)c2cc(F)ccc21 | 24
Cc1cccc2cc(CO)c(-c3ccc(C(C)N4CCOCC4)cc3)nc12 (stereo not drawn) | -22
COc1cc(C)ccc1S(=O)(=O)N1CCC2(CCN(C)C2)CC1 | -15
Cc1ccc(NC2(C(=O)NC3C=CS(=O)(=O)C3)CCCCC2)cc1 (stereo not drawn) | 191
Fc1ccc(NC(=S)Nc2ccccc2Cl)cc1 | 35
CCCCCCNC1=NCCCS1 | 6
Cn1c(SCCS(=O)(=O)c2ccc(OC(F)(F)F)cc2)nnc1C(F)(F)F | 147
COc1ccc(C(=O)Nc2ccc(-c3nc(-c4cc(C)ccc4C)co3)cc2)cc1OC | 7
Cc1ccccc1-c1nc(CN2CCN(C(=O)NC3CCCCC3)CC2)c(C)o1 | 1
CC1(C)CC[C@]2(C(=O)O)CC[C@]3(C)C(=CCC4[C@@]5(C)CC[C@H](O)[C@@](C)(CO)C5CC[C@]43C)C2C1 (stereo partly drawn) | 7
Cc1cc(N2CCCC2=O)cc(C)c1S(=O)(=O)Nc1c(C)nn(C)c1C | 2

Additional structures.
SMILES	Tgondii IFNg
Cc1nn(C(C)C)c(C)c1CN(C)C(=O)CCc1cn2ccccc2n1	4
CN1C(=O)c2cc(NC(=O)c3ccc(F)c(F)c3)ccc2OC[C@@H]2O[C@H](CC(=O)N3CCCCC3)CC[C@@H]21	-55
CCc1[nH]nc2c1C(c1ccc(F)cc1Cl)CC(=O)N2 (stereo not drawn)	-2
COc1ccc(C)cc1NC(=O)Cn1c(=O)cc(C(=O)N2CCc3ccccc3C2)c2ccccc21	-6
NCCNCCNCCNCCN	18
CCOc1ccc(C2=Cc3cc(OC)c(OC)cc3S(=O)(=O)O2)cc1	17
CCN(CC)C(=O)c1cc2cccnc2n(Cc2ccc(F)cc2)c1=O	-22
Cc1ccc(NC(=O)CN2C(=O)CCc3cc(S(=O)(=O)N4CCCCC4C)ccc32)cc1F (stereo not drawn)	-47
CNC(=O)c1ccc(OC)c(-n2ccc(C)n2)c1	5
OC[C@H]1[C@H](c2ccccc2)C2(CN(Cc3cccnc3)C2)N1Cc1ccncc1	10
Cn1c(CCC(=O)NC2CC(C)(C)Oc3ccccc32)nc2cc(Cl)ccc21 (stereo not drawn)	5
Cn1ccnc1CN1CCN(Cc2nc(-c3ccc4c(c3)OCO4)no2)CC1	11
Cc1nc2ccc(C(=O)N(Cc3noc(C)n3)C(C)C)cc2[nH]1	-4
CCCc1nc(CNC(=O)[C@@H]2C[C@@H]3C=C[C@H]2C3)cs1	1
O=C(O)c1cc(-n2cnnc2)ccc1Cl	-20
COc1cccc(CNC(=O)C[C@@H]2CC[C@H]3[C@H](COc4ccc(NS(=O)(=O)c5ccccc5F)cc4C(=O)N3C)O2)c1	-39
CC(C)n1cc(CN2C[C@@H](c3cccnc3)[C@@]3(CCCC(=O)N3)C2)c2ccccc21	17
Cc1ccccc1N1CCN(S(=O)(=O)CC23CCC(C[C@@H]2NC(=O)[C@@H](N)CCS(C)(=O)=O)C3(C)C)CC1 (stereo partly drawn)	12&24
Cc1cn(-c2ccccc2)nc1C(=O)Nc1nn(C)c2ccccc12	65
Cc1cnc(CNC(=O)c2nc(-c3cn(C)cn3)n3ccccc23)cn1	6
Cc1cc(C)n(CCCn2ccnc2-c2nc[nH]c2C)n1	2
Cc1ccc(C2=NC3(CCN(Cc4cccc(F)c4)CC3)NC2=O)cc1C	-30
Cc1ccc(S(=O)(=O)N2CC[C@@H]3[C@@H](CO)Nc4ccc(-c5cccc(C(=O)N(C)C)c5)cc4[C@@H]32)cc1	-70
CC(C)N1CCN(C(=O)c2csc(-c3ccc(N4CCCC4)nc3)n2)CC1	-27
CC(C)NC(=O)N(C)C[C@@H]1Oc2c(NS(=O)(=O)c3cccs3)cccc2C(=O)N([C@H](C)CO)C[C@@H]1C	-47
CCNS(=O)(=O)c1ccc(CCC(=O)NCc2cccnc2)cc1	49
CCOc1ccc(CCNC(=O)c2nc(N3CCCC3)c3ccccc3n2)cc1OCC	-63
CCCC(=O)Nc1c2c(nc3ccccc13)N(Cc1ccccc1)CC2	-6
CN1CCN2CCN(Cc3ccc4[nH]ccc4c3)CC2C1 (stereo not drawn)	-3
Cc1c(F)cccc1NC(=O)CN1CCC(Cc2noc(C3CC3)n2)CC1	-20
CN1CCN(C(=O)C[C@H]2CC[C@@H]3[C@H](COC[C@H](O)CN3C(=O)c3ccccc3F)O2)CC1	13
Cn1cc(-c2cnn3c(N)c(Br)c([C@@H]4CCCNC4)nc23)cn1	-64
Cc1c(S(=O)(=O)N2CCC(O)(Cn3ccc4ccncc43)CC2)cnn1C(F)F	5
C[C@@H]1CN([C@@H](C)CO)C(=O)c2ccccc2-c2ccccc2CO[C@H]1CN(C)C(=O)Nc1ccnc(N2CCOCC2)c1	45
CCS(=O)(=O)c1ccc(-c2ccc(C(N)=O)cc2)s1	34
CCC(=O)NC[C@H]1[C@@H](c2ccc(-c3ccc(C#N)cc3)cc2)[C@@H](CO)N1CCC(F)(F)F	-9
Cc1ccc(NC(=O)N2CCN(Cc3nc(-c4cccc(Cl)c4)oc3C)CC2)cc1C	-52
O=c1c(Cc2ccccc2)c(O)c2ccccc2n1-c1ccccc1	-37
COc1ccc2c3c([nH]c2c1)[C@@H](CO)N(Cc1ccccn1)CC31CN(C(=O)CC2CC2)C1	-6
O=C(NCc1csc(N2CCOCC2)n1)c1cccc2ccnn12	33
CN(CCSc1ccccc1)Cc1cc2n(n1)CCNC2	-4

High-throughput results (PubChem)
